Source: PubChem
UUG fidelity: modulators of yeast start codon fidelity, primary screen, whole organism, S. cerevisiae, single point, plate reader. S. cerevisiae UUG-firefly luciferase reporter, luminescence/redox ratio. activity score, % at 18.7 µM. actives 0.13% (n = 350,000). AID 602363, 2012;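 active = replicate mean at a twofold rise or more, about +100% in these data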;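 note: firefly luciferase made from a UUG start codon reports start codon fidelity; reporter light over untreated wells divided by growth signal over untreated wells; some hits fall short of that in this replicate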
Rce1 inh: yeast Rce1p protease inhibitors, primary screen, biochemical, fluorescence, cell-free homogeneous | yeast membranes, quenched prenylated peptide cleavage fluorescence | actives 0.27% (n = 290,000) | calls only | AID 2563, 2010;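 active = fall in fluorescence gain of 50% or more versus controls, with final raw signal at or below 3038400; inconclusive = same 50% fall but final raw signal above 3038400; inactive = fall in fluorescence gain under 50%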;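 note: plate controls were neutral control wells for no effect and wells lacking membranes for full effect; tested at 10 µM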
Target sequence (Q03530 whole entry, looked up): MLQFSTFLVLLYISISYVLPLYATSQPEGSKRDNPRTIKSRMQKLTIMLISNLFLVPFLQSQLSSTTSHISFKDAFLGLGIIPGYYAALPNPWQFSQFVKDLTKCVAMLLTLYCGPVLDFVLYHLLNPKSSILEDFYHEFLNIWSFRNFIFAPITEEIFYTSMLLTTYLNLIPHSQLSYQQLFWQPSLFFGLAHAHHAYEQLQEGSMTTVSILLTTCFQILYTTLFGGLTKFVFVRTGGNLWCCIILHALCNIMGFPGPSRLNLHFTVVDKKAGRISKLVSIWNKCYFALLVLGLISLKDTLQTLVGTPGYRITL
HIV Env fusion: inhibitors of HIV-1 Env-driven cell-cell fusion, primary screen, HeLa-JRFL effector, CEM21 target cells, luciferase. inhibition, % at 12.3 µM. actives 1.1% (n = 360,000);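 active = mean replicate inhibition score of at least 50 and every replicate individually at or above 50; inconclusive = only one of the two criteria met; inactive = mean below 50 and not all replicates reaching 50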;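 note: 0% = plate neutral controls and 100% = maraviroc near 300 nM; one replicate is shown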
PABP FP inh: PABP poly(A) RNA binding inhibitors, primary screen, biochemical, fluorescence polarization, uHTS; Polyadenylate-binding protein 1 (Homo sapiens), P11940; inhibition, % at 35 µM; actives 1% (n = 290,000); AID 2014, 2009;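 active = 50% or more with normal probe brightness, or confirmed in later tests; inconclusive = above 50% with abnormal brightness, or retests that disagree; inactive = below 50% or failed in later tests; about a fifth of its hits are not listed in these tables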;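 note: calls also rest on retests at 20 µM and on dose response follow-up; controls were probe without protein and protein plus probe with vehicle; some compounds called inactive have numbers as strong as hits; many hits fall short of the cut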
Target sequence (P11940 whole entry, looked up): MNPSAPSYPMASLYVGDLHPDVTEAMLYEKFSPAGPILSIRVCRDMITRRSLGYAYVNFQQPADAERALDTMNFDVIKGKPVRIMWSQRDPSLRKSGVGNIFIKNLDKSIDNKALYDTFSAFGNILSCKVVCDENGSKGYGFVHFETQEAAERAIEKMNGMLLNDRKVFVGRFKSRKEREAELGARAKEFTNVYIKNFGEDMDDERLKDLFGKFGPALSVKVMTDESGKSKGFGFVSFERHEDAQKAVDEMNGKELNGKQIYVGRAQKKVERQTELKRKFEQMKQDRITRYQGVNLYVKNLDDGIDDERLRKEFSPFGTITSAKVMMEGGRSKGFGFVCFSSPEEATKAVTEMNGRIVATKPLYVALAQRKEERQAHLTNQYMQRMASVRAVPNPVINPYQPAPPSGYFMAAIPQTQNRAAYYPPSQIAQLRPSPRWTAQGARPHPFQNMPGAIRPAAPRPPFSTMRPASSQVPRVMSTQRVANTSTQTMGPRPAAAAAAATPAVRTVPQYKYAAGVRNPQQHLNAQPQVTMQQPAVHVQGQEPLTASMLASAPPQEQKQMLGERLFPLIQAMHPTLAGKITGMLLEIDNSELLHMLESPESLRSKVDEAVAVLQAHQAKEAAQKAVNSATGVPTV
MT1-MMP act inh: blockers of MT1-MMP proenzyme processing, primary screen, HT1080 RFP-PRO-GFP cells, GFP/RFP fluorescence; GFP/RFP ratio fluorescence, overnight; percent of plate control window, DMSO zero; Matrix metalloproteinase-14 (Homo sapiens), P50281; actives 0.061% (n = 360,000); GFP/RFP ratio change, % at 20 µM;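 active = GFP/RFP ratio change of at least 30% with cell ATP level not reduced by more than half and red fluorescence within 50% of control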; note: strong numbers were not always called active
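Assay system – RFP-PRO-GFP reporter HT1080 cells · Compound dosing – single dose of 20 µM compound, 1% DMSO final · Incubation – overnight compound exposure at 37 °C · Measure – GFP/RFP fluorescence ratio · Benchmarks – DMSO wells and RFP-L50D-GFP cells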
CSC inhib: cancer stem cell viability inhibitors, primary screen, luminescence | cancer stem cell-like cells viability | inhibition, % at 7.5 µM | actives 1.1% (n = 300,000);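 active = mean at 75% or more and at least half the replicates too; inconclusive = mean and replicates disagree; tested in HMLE shEcad cells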;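 note: 0% = median of negative and 100% = median of positive control wells; the first replicate is given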
eIF4H FP inh: human eIF4H binding inhibitors, primary screen, translation initiation inhibitor project, biochemical, uHTS, fluorescence polarization | Eukaryotic translation initiation factor 4H (Homo sapiens), Q15056 | inhibition, % at 35 µM | eIF4H fluorescence polarization binding assay | actives 0.94% (n = 290,000);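 active = 50% or more with normal probe brightness, or confirmed in later tests; inconclusive = above 50% with abnormal brightness, or retests that disagree; inactive = below 50% or failed in later tests; about a fifth of its hits are not listed in these tables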;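 note: calls also rest on retests at 20 µM and on dose response follow-up; 0% = protein and probe with vehicle and 100% = probe without protein; strong numbers were not always called active; many hits fall short of the cut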
MT1-MMP act inh RFP: further read-out of MT1-MMP act inh, marked with its call; RFP signal change, %; measured here: RFP expression control read;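 0 = vehicle wells; hits needed this value within 50% of zero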
Starred values were filed as active, the others as inactive; i = inactive; ? = inconclusive; . = no result given. Compounds as they come; 2.9% or so of the library scored in one or more.

item	Structure	eIF4H FP inh	PABP FP inh	CSC inhib	Rce1 inh	MT1-MMP act inh RFP	HIV Env fusion	UUG fidelity	MT1-MMP act inh
1	CCOCCCNC(=O)C(c1ccc(C)cc1)N(Cc1cccs1)C(=O)CNC(C)=O (stereo not given)	-5	4	-3	i	7	3	8	12
2	CC(C)N=C(NS(=O)(=O)c1cccs1)c1ccccc1	1	4	-6	i	2	32	-5	0
3	CCOCCCNC(=O)C1c2ccccc2C(=O)N2CCc3ccccc3C12 (stereo not given)	0	-7	2	i	-2	1	-17	-6
4	Cc1ccc(Cl)cc1C1=CC(=O)C[C@H](c2ccc(F)cc2)C1	.	.	31	.	-5	7	-19	-2
5	COc1ccc(NC(=O)C(Sc2nnc(-c3ccncc3)n2-c2ccccc2C)c2ccccc2)cc1Cl (stereo not given)	1	11	-4	i	-17	.	-18	-12
6	CN(CC(=O)Nc1cccc(F)c1)C(=O)c1cc2c(s1)CCCCC2	.	.	2	i	-6	.	-20	-2
7	Cn1c(O)c(C=NCC2CCNCC2)c(=O)n(C)c1=O	-3	-9	.	i	.	.	.	.
8	CC1(C)NC(=O)N(CCSc2ccc(Cl)cc2)C1=O	-6	-1	-7	i	-5	-55	-1	2
9	Cc1cc(-c2ccccc2)nc(Cl)c1C#N	5	4	-17	i	1	-29	.	2
10	COc1ccc(NN=Nc2ccc([N+](=O)[O-])cc2)cc1	-8	8	12	i	-1	-79	-26	1
11	CCCCNC(=O)[C@H]1N2C(=O)c3c(ccc(OC)c3OC)C2SC1(C)C (stereo not given in full)	-5	-4	-9	i	4	1	-15	1
12	O=C(/C=C/Nc1ccc(F)cc1Br)c1ccccc1	0	-6	36	i	5	-22	-37	1
13	COc1ccc([N+](=O)[O-])cc1N(CC(O)CN1CCOCC1)S(=O)(=O)c1ccccc1 (stereo not given)	-7	4	.	i	2	5	.	1
14	N#CC1=C(S)N=C(N)C(c2nc(-c3ccccc3)cs2)C12CCCC2 (stereo not given)	-3	12	27	i	3	.	.	-5
15	Cc1ccc(Oc2ncccc2/C=N/O)cc1	7	2	-9	i	-5	.	-15	-5

Gathered by group: those above with an aryl thioether with sulfur outside any ring
item	Structure	eIF4H FP inh	PABP FP inh	CSC inhib	Rce1 inh	MT1-MMP act inh RFP	HIV Env fusion	UUG fidelity	MT1-MMP act inh
5	COc1ccc(NC(=O)C(Sc2nnc(-c3ccncc3)n2-c2ccccc2C)c2ccccc2)cc1Cl (stereo not given)	1	11	-4	i	-17	.	-18	-12
8	CC1(C)NC(=O)N(CCSc2ccc(Cl)cc2)C1=O	-6	-1	-7	i	-5	-55	-1	2

2 entries drawn at random from those above:
item	Structure	eIF4H FP inh	PABP FP inh	CSC inhib	Rce1 inh	MT1-MMP act inh RFP	HIV Env fusion	UUG fidelity	MT1-MMP act inh
5	COc1ccc(NC(=O)C(Sc2nnc(-c3ccncc3)n2-c2ccccc2C)c2ccccc2)cc1Cl (stereo not given)	1	11	-4	i	-17	.	-18	-12
3	CCOCCCNC(=O)C1c2ccccc2C(=O)N2CCc3ccccc3C12 (stereo not given)	0	-7	2	i	-2	1	-17	-6

Next records.
item	Structure	eIF4H FP inh	PABP FP inh	CSC inhib	Rce1 inh	MT1-MMP act inh RFP	HIV Env fusion	UUG fidelity	MT1-MMP act inh
16	CCN(C(=O)COC(=O)Cc1coc2cc(C)ccc12)c1c(N)n(Cc2ccccc2)c(=O)[nH]c1=O	.	.	.	.	1	-8	-10	4
17	CCN1CCCC1CNS(=O)(=O)c1ccc(F)c(Cl)c1 (stereo not given)	-9	4	-1	i	5	-3	-13	2
18	N/C(=N\OC(=O)CCCOc1ccccc1)c1cccc([N+](=O)[O-])c1	0	-5	-6	.	3	8	.	3
19	Cc1ccc(-c2nnn(CC(=O)NC(=O)NC3CCCCC3)n2)cc1	.	.	.	.	0	i	-13	2
20	COc1ccc(NC(=S)NNC(=O)C(C)n2nc(C)c([N+](=O)[O-])c2C)cc1 (stereo not given)	-4	-16	-6	i	0	.	-14	0
21	O=C(NCC1COc2ccccc2O1)C1CCCN(S(=O)(=O)c2cccc3nsnc23)C1 (stereo not given)	24	24	1	i	-7	.	-12	-8
22	CC(=O)N1c2ccc(S(=O)(=O)N3CCC(C(=O)N4CCN(c5ccccc5)CC4)CC3)cc2CC1C (stereo not given)	-7	-3	0	i	-9	36	4	1
23	O=S(=O)(O)c1cccnc1SCc1ccccc1	.	.	-3	i	2	4	-13	0
24	Cc1cccc(NC(=O)CCNC(=O)c2ccccc2Cl)n1	-1	-3	14	i	4	2	-16	2
25	Cc1cccc(-c2cc3c(N=O)c4ccccc4c-3n[nH]2)c1	-4	33	.	i	-5	-196	.	0
26	S=c1[nH]nc(-c2cc(-c3ccccc3)n[nH]2)n1/N=C/c1ccc(Cl)cc1	2	1	17	i	0	-9	-20	10
27	COc1ccc(C2CC(c3ccccc3)Nc3nc(NC(=O)c4cccs4)nn32)cc1 (stereo not given)	-2	1	-3	i	3	.	-27	8
28	CCOc1ccc(S(=O)(=O)c2c[nH]c3ccccc3c2=O)cc1	1	5	-10	i	0	-4	.	2
29	Cc1ccc(NC(=O)CCN2C(=O)c3ccccc3Sc3ncccc32)cc1	0	8	4	i	-1	0	-6	-5
30	O=C(Cn1cnc2c(nnn2-c2ccccc2)c1=O)NCC1CCCO1 (stereo not given)	-4	-2	1	i	4	23	-13	5
31	CCN(CC)S(=O)(=O)c1ccc(C(=O)NC2=C(C(=O)OC)SCC2)cc1	-8	-4	-4	i	-2	18	12	2
32	Cc1ccc(S(=O)(=O)NC(=O)NN2CCCCCC2)cc1	2	-1	3	i	4	0	-3	1
33	CCOc1ccc(NC(=S)N/N=C(\C)Cc2ccc(OC)cc2)cc1	-6	-3	2	i	7	11	.	0
34	O=C(O)C1=NN(c2c(F)c(F)cc(F)c2F)C(=O)CC1	-4	-2	1	i	10	-2	-17	1
35	O=C(Nc1nc(-c2ccccn2)cs1)C1CC(=O)N(c2ccc3c(c2)OCCO3)C1 (stereo not given)	35	-9	-9	i	.	17	-32	.
36	CCN1C(=NCc2ccc(OC)cc2)N[C@@H](CCc2ccccc2)[C@H](C(=O)NCc2ccc(OC)cc2)[C@H]1C	-9	6	14	i	.	.	-2	.
37	CCCCC1NC(=S)N(C2CCCCC2)C1=O (stereo not given)	7	16	-15	i	2	-27	.	1
38	CCc1nc2c(c(=O)[nH]1)C1(CCCC1)Cc1ccccc1-2	-12	2	-4	i	0	-12	-16	5
39	CC(=O)c1cc2c(cc1NC(=O)c1ccc(C)cc1)OCO2	-4	-1	3	i	.	.	.	.
40	Cc1cccc(NC(=O)Cn2c(O)c(N=NC(N)=S)c3ccccc32)c1	10	6	15	i	-9	3	-18	-9
41	c1ccc2c(-c3[nH]ncc3CNCCCn3ncc4ccccc43)cccc2c1	14	0	5	i	-5	?	-10	-4
42	COc1ccc(C(CNC(=O)c2ccc(C)o2)N2CCOCC2)cc1 (stereo not given)	.	.	0	i	-1	-10	9	-3
43	Cc1nc2c(C)cccc2cc1C(=O)N/N=C/c1ccc(N(C)C)cc1	-1	0	64	i	-2	.	-9	-1
44	Clc1ccc(C2[C@H]3CN(Cc4ccc(-c5ccccc5)cc4)[C@H](c4ccccc4)C34CC2(c2ccccc2)C4)cn1 (stereo not given in full)	2	-12	11	i	.	-55	.	.
45	COC(=O)c1ccc(/C=N\N2CCN(c3ccccc3)CC2)cc1	-13	0	10	i	-5	-13	-13	-2
46	Cc1cccc(C)c1NS(=O)(=O)c1ccc(-c2ccc(=O)[nH]n2)o1	-3	4	-1	i	3	2	-7	0
47	COc1ccc(CN2CN(C(C)C)CSC2=S)cc1	-13	-8	38	i	-1	37	-38	4
48	O=c1oc2c(O)cccc2cc1-c1nc2ccccc2[nH]1	?	?	27	i	-3	-51	-12	-86
49	Cc1cc(C)c(S(=O)(=O)N2CCCC(C(=O)NCc3ccncc3)C2)c(C)c1 (stereo not given)	-5	-8	-18	i	-6	15	-16	1
50	CN1CC=C2C(C#N)=C(N)C(C#N)(C#N)[C@H](c3cccc(Cl)c3)C2C1 (stereo not given in full)	?	?	-16	i	4	.	-11	-63
51	CSCCC(C(=O)NC1=NCCS1)N1C(=O)c2ccccc2C1=O (stereo not given)	-2	-7	-9	i	2	.	-15	-5
52	O=C(N/N=C/C1CC=CCC1)c1cc2ccccc2cc1O (stereo not given)	26	7	-3	i	-7.3*	-43	-16	35*
53	COc1ccc(C(=O)OCC(=O)Nc2ccc(Cl)cn2)cc1	-4	-3	-11	i	.	-4	5	.
54	COc1ccc(S(=O)(=O)N2CCN(C(=O)c3cc(-c4ccc(C)cc4)n[nH]3)CC2)cc1	-2	-5	.	i	-7	-127	-43	4
55	COC(=O)c1cc(C(=O)NCc2ccc3c(c2)OCO3)cc([N+](=O)[O-])c1	-1	-3	-7	i	1	-19	-11	1
56	CC1(C)CC(NS(=O)(=O)c2ccc(S(N)(=O)=O)cc2)CC(C)(C)N1	10	23	5	i	0	3	.	-1
57	CNc1nc(Sc2ccc(C)cc2)cc(C(F)(F)F)n1	8	5	11	i	-20	i	-13	-22
58	Cc1cc(C)cc(NC(=O)COC(=O)CCc2ccc(S(=O)(=O)N3CCOCC3)cc2)c1	-7	2	-7	i	5	-14	.	3
59	O=C1NC(Cc2ccccc2)c2nc3ccc(Cl)cc3c(=O)n2-c2ncccc21 (stereo not given)	.	.	.	.	2	-29	-4	0
60	CCCCOc1ccc(C(=O)OCC(=O)N2CCCCCC2)cc1	.	.	.	.	-4	26	-3	0
61	CC(C)(C)c1cc(C(=O)O)n(Cc2ccc(Cl)cc2Cl)n1	-4	3	5	i	-1	4	.	-2
62	COc1cccc(/C=C/c2n[nH]c(=O)c(C#N)c2C)c1	-7	-2	-20	i	-8	3	2	-5
63	COC(=O)C1CCN(C(=O)Nc2ccccc2)CC1	0	0	-2	i	8	0	.	3
64	Cc1[nH]c(=O)[nH]c(=O)c1N1CCOCC1	-2	10	-14	i	0	-11	-30	-1
65	COc1ccc(NC(=O)CCNC(=O)C2CCN(S(=O)(=O)c3ccc(OC)cc3)CC2)cc1	.	.	-15	i	6	3	-1	2
66	CC(C)C(=O)N1CCC(Cc2ccccc2)CC1	-5	3	-4	i	3	7	-10	0
67	COc1ccc(-c2noc(-c3ccccc3C(=O)Nc3cccc(OC)c3)n2)cc1	-7	4	-9	i	1	.	-8	0
68	O=C(Nc1ccccc1N1CCN(C(=O)c2ccc(Cl)cc2)CC1)c1cccc(F)c1	-14	3	-1	i	-2	5	-7	-2
69	COc1ccc(C2CC(=O)c3c([nH]c(C(=O)OC(C)C)c3C)C2)cc1OC (stereo not given)	-2	0	-3	i	-23	-3	-8	-3
70	COC(=O)c1ccc(NC(=O)c2ccc3nsnc3c2)cc1	-2	2	-3	i	-5	-18	-17	-1
71	CCOC(=O)c1sc(=S)n(-c2ccccc2)c1NC(C)=O	-5	-7	-12	i	5	-12	-5	-3
72	Cc1ccc(/C=N/NC(=O)CSc2nc3ccccc3s2)o1	22	-9	10	i	4	.	.	-1
73	CCOc1ccccc1NC(=O)Cn1c(=O)oc2cc(Cl)ccc21	-13	13	-8	i	-4	2	-11	-1
